GIRK2 act: GIRK2 channel activation. 63,000 tested, 0.05% active. calls only for hits at 25 µM. P48051. HEK293-GIRK2 thallium flux, Thallos fluorescence;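 active = among the strongest 0.2% of first-round signals and kept after retests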;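 note: first round at about 10 µM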
Target sequence (P48051 whole entry, looked up): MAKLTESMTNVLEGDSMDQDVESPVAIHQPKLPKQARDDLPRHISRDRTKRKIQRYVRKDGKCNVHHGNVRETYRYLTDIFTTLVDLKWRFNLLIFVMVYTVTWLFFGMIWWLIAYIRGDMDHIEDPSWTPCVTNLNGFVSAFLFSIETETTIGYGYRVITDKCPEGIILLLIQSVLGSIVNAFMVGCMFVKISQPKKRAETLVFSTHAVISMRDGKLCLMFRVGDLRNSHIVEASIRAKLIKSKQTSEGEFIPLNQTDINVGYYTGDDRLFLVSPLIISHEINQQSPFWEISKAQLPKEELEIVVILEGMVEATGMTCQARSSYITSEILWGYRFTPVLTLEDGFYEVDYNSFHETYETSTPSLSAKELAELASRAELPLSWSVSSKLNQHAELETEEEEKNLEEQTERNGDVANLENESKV
Calls only; i = inactive. A portion of the library. The share of hits here may be higher or lower than overall.

GIRK2 act | compound
i | CCOC(=O)N1CCN(CC(O)COC(C)(C)C)CC1 (stereo not given)
i | CC(C)C(=O)N1CCc2ccc(NC(=O)NC34CC5CC(CC(C5)C3)C4)cc2C1
i | COC(=O)COc1ccc2c(c1)O/C(=C\c1cc(Br)cc3c1OCOC3)C2=O
i | Cc1ccc(=O)n(CC(=O)N2CCC(C(N)=O)CC2)n1
i | CCn1nc(C(=O)NCC2CCCO2)ccc1=O (stereo not given)
i | CCn1c(SCC(=O)NC2CCCC2)nc2c(-c3ccc(C)cc3)csc2c1=O
i | COC(=O)c1c(NC(=O)CCCS(=O)(=O)Cc2ccccc2)sc2c1CCCC2
i | O=C(c1ccc(Cl)s1)N1CCC(Oc2ccc(C(F)(F)F)cn2)CC1
i | O=C(NCCc1ccccc1)c1ccc2c(=O)nc3c(-c4ccc(Cl)cc4)n[nH]n3c2c1
i | COc1ccc(SCCCC(=O)Nc2ncc(S(=O)(=O)c3ccc([N+](=O)[O-])cc3)s2)cc1
i | C#C[C@]1(OC(C)=O)CC[C@H]2[C@@H]3CCC4=CC(=O)CC[C@@H]4[C@H]3CC[C@@]21C
i | COc1cc2c(cc1OC)CN(C(=O)C1CCN(c3ccc(-n4cccn4)nn3)CC1)CC2
i | CC(O)(CNC(=O)c1ccccn1)c1cccs1 (stereo not given)
i | COc1cc(NC(=O)COc2nc(C)nc3ccccc23)cc(OC)c1
i | CCCCc1ccc(N=Cc2c(C)c(C#N)c(=O)n(CCCC)c2O)cc1
i | CCOC(=O)N1CCN(S(=O)(=O)c2cn(C)nc2C)CC1
i | Cc1cc(C(=O)Nc2nc3c(s2)CN(C(=O)c2cccn(C)c2=O)CC3)no1
i | COc1ccc(-c2cc3nn(CC(=O)N(C)c4cccc(Cl)c4)c(=O)n3c(C)n2)cc1
i | COc1ccc(-c2cc3c(SCC(=O)Nc4c(C)cccc4C)nccn3n2)cc1
i | CCCn1nc(-c2cccs2)c2sc(N3CCOCC3)nc2c1=O
i | CCc1ccc(OCc2nc3ccc(OC)cc3[nH]2)cc1
i | Cn1nc(CNC(=O)Nc2ccccc2Cl)cc1-c1ccccn1
i | O=C(NCc1ccc(C(F)(F)F)cc1)c1ccc(Oc2nccnc2N2CCCCC2)cc1
i | Cc1ccc(S(=O)(=O)N2CCc3cc(S(=O)(=O)NC4CCCC4)ccc32)cc1C

Reprinted from the results shown (16 entries):
GIRK2 act | compound
i | COC(=O)c1c(NC(=O)CCCS(=O)(=O)Cc2ccccc2)sc2c1CCCC2
i | O=C(c1ccc(Cl)s1)N1CCC(Oc2ccc(C(F)(F)F)cn2)CC1
i | O=C(NCCc1ccccc1)c1ccc2c(=O)nc3c(-c4ccc(Cl)cc4)n[nH]n3c2c1
i | COc1ccc(SCCCC(=O)Nc2ncc(S(=O)(=O)c3ccc([N+](=O)[O-])cc3)s2)cc1
i | C#C[C@]1(OC(C)=O)CC[C@H]2[C@@H]3CCC4=CC(=O)CC[C@@H]4[C@H]3CC[C@@]21C
i | COc1cc2c(cc1OC)CN(C(=O)C1CCN(c3ccc(-n4cccn4)nn3)CC1)CC2
i | CC(O)(CNC(=O)c1ccccn1)c1cccs1 (stereo not given)
i | COc1cc(NC(=O)COc2nc(C)nc3ccccc23)cc(OC)c1
i | CCCCc1ccc(N=Cc2c(C)c(C#N)c(=O)n(CCCC)c2O)cc1
i | CCOC(=O)N1CCN(S(=O)(=O)c2cn(C)nc2C)CC1
i | Cc1cc(C(=O)Nc2nc3c(s2)CN(C(=O)c2cccn(C)c2=O)CC3)no1
i | COc1ccc(-c2cc3nn(CC(=O)N(C)c4cccc(Cl)c4)c(=O)n3c(C)n2)cc1
i | COc1ccc(-c2cc3c(SCC(=O)Nc4c(C)cccc4C)nccn3n2)cc1
i | CCCn1nc(-c2cccs2)c2sc(N3CCOCC3)nc2c1=O
i | CCc1ccc(OCc2nc3ccc(OC)cc3[nH]2)cc1
i | Cn1nc(CNC(=O)Nc2ccccc2Cl)cc1-c1ccccn1

(list continues)
GIRK2 act | compound
i | O=C(Nc1cnc(-n2cccn2)nc1)Nc1ccc(F)c(Cl)c1
i | O=C(Nc1ccc(OC(F)(F)F)cc1)C(=O)NC1CC1
i | CCCc1cc(=O)[nH]c(SCc2ccc(C(=O)OC)cc2)n1
i | O=C(NCc1cnn2ccccc12)c1ccc(-n2cccc2)cc1
i | OCCN(CCO)CC(O)COc1ccc(Br)cc1Br (stereo not given)
i | C[C@@H]1O[C@@H](O[C@H]2[C@H](O[C@H]3[C@H](O)[C@@H](C(=O)O)O[C@@H](O[C@H]4CC[C@@]5(C)C(CC[C@]6(C)C5CC[C@]57OC[C@@]8(CCC(C)(C)CC85)[C@H](O)C[C@]76C)C4(C)C)[C@@H]3O[C@@H]3O[C@H](CO)[C@@H](O)[C@H](O)[C@H]3O)O[C@H](CO)[C@H](O)[C@@H]2O)[C@H](O)[C@H](O)[C@H]1O (stereo not given in full)
i | Cc1noc(-c2cccn(CC(=O)c3ccccc3)c2=O)n1
i | C=C1CC2C3(C)C(O)CC(=O)C(C)(C)C3CC(OC(C)=O)C2(C)C2C(=O)OC(C)(C(=O)OC)C(=O)C12C (stereo not given)
i | CCN1CCN(c2nc3c(c(=O)[nH]c(=O)n3C)n2CCc2ccc(OC)cc2)CC1
i | Cc1c(C)n2c3c(=O)n(CC(N)=O)c(=O)n(C)c3nc2n1-c1ccc(C(F)(F)F)cc1
i | O=c1[nH]cnc2c(-c3cccc(Cl)c3)csc12
i | Cc1ccc(NC(=O)CN2CN(c3cccc(F)c3)c3ncccc3S2(=O)=O)cc1
i | CCOc1ccc(C2CC(c3ccccc3NS(C)(=O)=O)=NN2S(C)(=O)=O)cc1 (stereo not given)
i | COc1ccccc1-c1nc(-c2cn(-c3cccc(Cl)c3)nn2)no1
i | COc1ccccc1N1CCN(C(=O)CSc2nccn3nc(-c4ccccc4)cc23)CC1
i | O=C(CSc1nc2c(sc(=S)n2-c2ccccc2)c(=O)[nH]1)Nc1ccc(F)c(Cl)c1
i | CSc1ccc(-c2noc(-c3nn(-c4ccc(F)c(F)c4)ccc3=O)n2)cc1
i | COc1ccc(NC(=O)Cn2c(C)cc(C)c(-c3nc(-c4ccc(OC)cc4)no3)c2=O)cc1
i | COc1ccc(-n2nnc(C(=O)Nc3ccccc3C(N)=O)n2)cc1
i | CC(C)(C)C(O)CCNC(=O)/C=C/c1ccccc1 (stereo not given)
i | CCOC(=O)C1CCN(C(=O)c2nnn(-c3ccccc3OC)c2-c2ccccn2)CC1
i | Cn1c(CN2CCN(CCN3CCCC3)CC2)nc2ccccc21
i | O=S(=O)(c1cccc(C(F)(F)F)c1)N(Cc1ccoc1)Cc1cccs1
i | O=C(/C=C/c1cccs1)OC1CN(c2nc3c(F)cc(F)cc3s2)C1
i | Cc1noc(-c2ccc(N3CCCC(C(=O)Nc4ccc(C(N)=O)cc4)C3)nc2)n1 (stereo not given)
i | O=C(Cn1c(-c2nc(-c3ccccc3)no2)cccc1=O)Nc1ccccc1C(F)(F)F
i | COc1ccc(N2CCN(Cc3nc4c(c(=O)n(C)c(=O)n4C)n3CC(N)=O)CC2)cc1
i | CCOC(=O)C1CCN(c2nc3ccccc3n3c(=O)n(CC(=O)Nc4ccccc4C)nc23)CC1
i | O=S(=O)(C1CC1)N1CCC(CSc2ccccn2)CC1
i | CCOC(=O)c1c(C)oc2ccc(OS(C)(=O)=O)cc12
i | Cc1noc(C)c1CCC(=O)N1CCCC(c2nnc(-c3cccs3)o2)C1 (stereo not given)
i | CCCNC(=O)Cn1nc2c(c1NC(=O)c1cc(OC)c(OC)c(OC)c1)CSC2
i | O=C(c1csc(-n2cccc2)n1)N1CCN(c2ccccc2)CC1
i | C[C@@H](OC(=O)/C=C/c1ccc(O)cc1)C1=CC2(C=C[C@@H]3C(C(=O)O)=CO[C@@H](O[C@@H]4O[C@H](CO)[C@@H](O)[C@H](O)[C@H]4O)[C@@H]32)OC1=O (stereo not given in full)
i | COc1cc2nc(SCC#N)n3nc(-c4ccc([N+](=O)[O-])cc4)nc3c2cc1OC
i | CCOc1ccccc1NC(=O)Cn1nc2c(Oc3ccc(C)cc3)nccn2c1=O
i | COc1ccc(C)cc1NC(=O)CSc1nccn2nc(-c3ccc(Cl)cc3)cc12
i | O=C(c1ccc(Br)o1)N1CC(c2nc(Cc3ccccc3)no2)C1
i | COc1ccc(-c2csc3c(=O)n(CC(=O)NC4CCCC4)cnc23)cc1
i | Cc1nc(OCC(=O)Nc2ccc(OC(F)(F)F)cc2)cc(-n2cccn2)n1
i | CCc1ccc(-n2nnc(C(=O)Nc3cccc(C)c3)c2C)cc1
i | Cc1ccc(C)c(N2CCN(S(=O)(=O)c3ccccc3)CC2)c1
i | Cc1cc(C(=O)N2CCN(CC(=O)c3ccco3)CC2)no1
i | COc1cccc2sc(OC3CN(C(=O)COc4ccccc4F)C3)nc12
i | COC(=O)CSc1cc(C(C)(C)C)nc2c(-c3ccccc3)c(C)nn12
i | COc1cccc(C(=O)NCCc2ccoc2)c1OC
i | N#CCN1CC(c2nc(C3CC3)no2)C1
i | O=S(=O)(NCCN1CCN(c2ccccc2)CC1)c1ccc(OC(F)(F)F)cc1
i | O=C(c1nnn(-c2ccc(C(F)(F)F)cc2)n1)N1CCN(c2ccccc2Cl)CC1
i | Cc1cc(C)c(S(=O)(=O)Nc2ccccc2)c(C)c1N(C)S(C)(=O)=O
i | CCCC[C@H](C)C[C@H](O)/C=C/[C@H]1[C@H](O)CC(=O)[C@@H]1CCCCC(CC(=O)O)OC (stereo not given in full)
i | COc1ccc(-c2nnc(NC(=O)Cc3ccccc3)o2)c(OC)c1
i | COc1ccc(NC(=O)Cn2nc3c(N4CCOCC4)nccn3c2=O)cc1Cl
i | Cc1cc(C)c(S(=O)(=O)NC(C)C)cc1N(C)S(=O)(=O)c1ccc(Cl)cc1
i | CC(C)Oc1ccc(C(=O)NCc2ccc(C(=O)c3cccs3)s2)cc1
i | COC(=O)c1ccc(C(=O)OC)c(NC(=O)C(C)(C)C)c1

Next part.
GIRK2 act | compound
i | O=C1CCSCC(C(=O)NCc2ccc3c(c2)OCO3)N1 (stereo not given)
i | O=C1N(CC(=O)N(Cc2ccccc2)c2ccccn2)CCN1c1ccc(F)cc1
i | O=C(CSc1nccnc1N1CCSCC1)NCc1ccccc1Cl
i | COc1ccc2[nH]c3c(SCC(=O)Nc4cc(Cl)c(OC)cc4OC)ncnc3c2c1
i | Cc1cc2oc(=O)cc(CN(C)Cc3ccccc3)c2cc1O
i | O=C(NCc1ccc(OC(F)(F)F)cc1)c1coc(NC(=O)c2cnccn2)n1
i | CCOc1ccc(-n2ccn3c(CC(C)CC(=O)NCc4cccc(OC)c4)nnc3c2=O)cc1 (stereo not given)
i | COC(=O)c1sccc1S(=O)(=O)Nc1ccc(Br)c(C)c1
i | COc1ccc(OC)c(Nc2ncnc3[nH]ncc23)c1
i | Cn1cc(C(=O)NC2CC(=O)N(C3CC3)C2)nn1 (stereo not given)
i | CCOc1ccc(C(=O)N(C(=O)N2CCCCC2)c2ccccc2)cc1OCC
i | Cc1onc(-c2ccccc2Cl)c1C(=O)NCCN1CCN(c2ccccc2)CC1
i | CCc1noc(-c2ccc(=O)n(CC(=O)Nc3ccc(C)cc3C)c2)n1
i | CCOC(=O)Cn1c(=O)c2c(nc3n(-c4cccc(C)c4C)c(C)cn23)n(C)c1=O
i | CCOC(=O)NCC#CCOc1ccc2c(c1)OCO2
i | COc1ccccc1-n1nnc(C(=O)Nc2ccccc2C(F)(F)F)c1C
i | COc1ccc(-n2nnnc2CNC(=O)Nc2cc(OC)c(OC)c(OC)c2)cc1
i | C[C@H]1C[C@@H]2[C@H]([C@@H](O)C[C@@]3(C)[C@H]2CC[C@]3(O)C(=O)CO)[C@@]2(C)C=CC(=O)C=C12
i | Cc1cc(C)c2sc(NC(=O)C3CC(=O)N(c4ccccc4)C3)nc2n1 (stereo not given)
i | Cn1nc(CNC(=O)C2(c3cccs3)CCCC2)cc1-c1ccncc1
i | CS(=O)(=O)Oc1ccc2c(c1)O/C(=C\c1cc(Cl)cc3c1OCOC3)C2=O
i | COc1cc(COCC2CCN(C(=O)Nc3cccs3)CC2)cc(OC)c1
i | COc1ccc(S(=O)(=O)N2CCCOC2CNC(=O)C(=O)NCc2ccccn2)cc1OC (stereo not given)
i | COC(=O)c1ccccc1NC(=O)Cc1csc(Nc2ccccn2)n1
i | COc1ccc(Cl)cc1C(=O)N1CCC2(CC1)OCCCO2
i | COc1cccc(CNC(=O)Cn2c(C)nc3c(c2=O)CN(Cc2ccccc2)CC3)c1
i | O=C(Nc1nc2c(s1)CN(C(=O)c1cc(-c3cccs3)[nH]n1)CC2)c1ccco1
i | Cc1ccc(Oc2nccn3c(=O)n(CC(=O)Nc4c(C)cccc4C)nc23)cc1
i | CC(/C=C/[C@@]1(C)[C@H](C)CCC(=O)[C@@H]1C)=C\Cc1c(O)cc(C)c(C=O)c1O
i | O=S(=O)(c1cccnc1)N1CCC(N2CCCC2CO)CC1 (stereo not given)
i | NC(=O)c1cc2c(-c3ccccc3)nn(-c3ccccc3)c2s1
i | Cc1ccc(S(=O)(=O)N(C)c2ccsc2C(=O)NCCc2cccs2)cc1
i | Cc1ccc(Cl)cc1N1CCN(C(=O)CCn2c(=O)[nH]c3ccccc3c2=O)CC1
i | COc1cccc(NS(=O)(=O)c2cc3c4c(c2)CCN4C(=O)CC3)c1
i | CCOc1cc(C)c(S(=O)(=O)N2CCN(C)CC2)cc1C
i | Cc1ccsc1C(O)CNC(=O)C(=O)Nc1cccc(C(F)(F)F)c1 (stereo not given)
i | CCOc1ccc(-n2c(C)c(C)n3c4c(=O)n(C)c(=O)n(C)c4nc23)cc1
i | COc1ccccc1-c1cc(C(=O)N2CCC(Oc3ccc(C(F)(F)F)cn3)CC2)[nH]n1
i | O=C(Cc1ccccc1Cl)Nc1ccc2c(c1)C(=O)N1CCCCC1CCO2 (stereo not given)
i | O=C(NCc1cc(-c2cccs2)n(C2CCCC2)n1)Nc1ccccc1C(F)(F)F

Screening results as filed in PubChem BioAssay.
